HNF4A DNA FP: change in binding of human HNF4A to DNA, primary screen, biochemical, fluorescence polarization, FITC-DNA | activity change, % at 10 µM | Hepatocyte nuclear factor 4-alpha (Homo sapiens), P41235 | 360,000 compounds, 0.3% hits | 1 h; in the data active = activity change above about 30%, passing the limit was not always enough;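 note: controls were the assay level and a saturating level of protein; the project sought stronger binding though the title names inhibitors; some compounds called inactive have numbers as strong as hits; positive values seem to mean higher polarization but the record does not say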
Target sequence (P41235 whole entry, looked up): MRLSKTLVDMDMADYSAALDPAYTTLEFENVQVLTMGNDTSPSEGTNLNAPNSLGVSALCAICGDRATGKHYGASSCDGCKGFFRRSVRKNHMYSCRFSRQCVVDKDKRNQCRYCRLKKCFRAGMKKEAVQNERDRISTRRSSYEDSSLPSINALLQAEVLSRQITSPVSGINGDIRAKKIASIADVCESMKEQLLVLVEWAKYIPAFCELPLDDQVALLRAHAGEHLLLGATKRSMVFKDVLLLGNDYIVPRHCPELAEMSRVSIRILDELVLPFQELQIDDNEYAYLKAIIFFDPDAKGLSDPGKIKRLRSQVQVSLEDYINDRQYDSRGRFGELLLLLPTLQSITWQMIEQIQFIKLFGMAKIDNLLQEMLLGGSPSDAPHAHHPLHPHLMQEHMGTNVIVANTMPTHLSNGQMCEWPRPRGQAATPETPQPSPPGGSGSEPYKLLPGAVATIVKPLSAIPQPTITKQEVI
UCH37 inh: inhibitors of human UCH37 deubiquitinase, primary screen, biochemical, Ub-AMC cleavage, fluorescence; purified proteasome/UCH37; inhibition, % (test concentration not listed); 330,000 compounds, 0.33% hits; AID 588478, 2011;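 active = mean of two replicates above 20%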;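 note: 0% = compound-free wells with enzyme and 100% = wells lacking proteasome; stock transfer was 100 nL into about 20 µL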
Target sequence (Q9Y5K5 whole entry, looked up): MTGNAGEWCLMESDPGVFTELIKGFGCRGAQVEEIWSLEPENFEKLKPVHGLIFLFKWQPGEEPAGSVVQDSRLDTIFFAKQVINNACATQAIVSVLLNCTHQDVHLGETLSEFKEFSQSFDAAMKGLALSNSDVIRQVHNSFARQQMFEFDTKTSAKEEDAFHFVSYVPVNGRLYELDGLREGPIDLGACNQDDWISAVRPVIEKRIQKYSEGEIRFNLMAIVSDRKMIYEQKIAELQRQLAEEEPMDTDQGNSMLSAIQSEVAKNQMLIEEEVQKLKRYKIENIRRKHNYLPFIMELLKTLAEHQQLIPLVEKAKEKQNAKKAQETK
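system = Proteasome-associated human UCH37 deubiquitinase | amount = 0.15 nM proteasome as dispensed | medium = pH 7.4 Tris-HCl (50 mM) with ovalbumin, ATP-MgCl2, DTT | incubation = 30 min preincubation with enzyme, 25 min cleavage at room temperature | detection = AMC fluorescence 355/460 nm | read-out basis = percent inhibition | controls = no-proteasome and no-compound wells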
ALR inh: inhibitors of human ALR sulfhydryl oxidase, primary screen, biochemical, H2O2 detection, HRP-luminol luminescence, single point. FAD-linked sulfhydryl oxidase ALR (Homo sapiens), P55789. purified ALR, DTT oxidation. inhibition, % (no concentration beside the values). 290,000 compounds, 3.8% hits. AID 485317, 2010;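 active = mean and each replicate at 75% or more; inconclusive = only one of the two met; inactive = neither met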;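 note: stock transfer was 7.5 nL into about 7.5 µL; 0% = neutral wells and 100% = wells with inactivated enzyme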
Ecoli rRNA inh: reduced GFP signal of wild-type E. coli, primary screen, bacterial rRNA inhibitor project, GFP/RFP fluorescence, OD600, single point; E. coli WT GFP vs humanized-ribosome RFP mutants, 24 h; hits give low values; DMSO median 0, no signal -100; GFP signal change (wild-type ribosome), % (test concentration not listed); 350,000 compounds, 1.6% hits;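 active = significant combined selectivity score with lowered wild-type GFP, culture density cut under 30%, mutant RFP and density less affected; inactive = any of these conditions unmet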; note: one replicate is shown; some compounds called inactive have numbers as strong as hits
FGF22 binding: binders of human FGF22 protein, primary screen, FGF22 synaptogenesis inhibitor project, biophysical, thermal shift, single point. Fibroblast growth factor 22 (Homo sapiens), Q9HCT0. recombinant FGF22 thermal shift, SYPRO orange fluorescence; percent of sucrose octasulfate shift, DMSO zero. calls only at 9.99 µM. 340,000 compounds, 1.5% hits;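 active = melting point raised past a set limit in the mean and every replicate; inconclusive = no clear call; three in four hits are not shown here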
Target sequence (Q9HCT0 whole entry, looked up): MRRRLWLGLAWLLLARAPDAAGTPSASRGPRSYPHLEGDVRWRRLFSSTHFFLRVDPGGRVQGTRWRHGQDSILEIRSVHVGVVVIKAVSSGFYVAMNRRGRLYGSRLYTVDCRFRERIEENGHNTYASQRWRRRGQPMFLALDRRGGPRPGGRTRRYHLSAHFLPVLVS
Beta2AR agonist: beta2AR agonists driving receptor internalization, primary screen, cell-based, FAP fluorogen, flow cytometry | Am2.2-beta2AR cells; reference of the scale not given here | 340,000 compounds, 0.43% hits | AID 504454, 2011 | response, % (no concentration beside the values);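 active = response above a set limit, near 3 SD of response in nonfluorescent compounds, cut at about 42% in these data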;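 note: stock transfer was 100 nL into about 11 µL; a reference agonist was the positive control; negative values mostly stem from fluorescent compounds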
E coli growth: E. coli growth inhibition, primary screen, OD600. Escherichia coli growth, 23 h; hits give low values. 330,000 compounds, 0.21% hits. OD600 absorbance (no concentration beside the values);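 active = OD600 absorbance below the run mean of sample wells minus 3.6 SD, in any replicate, cut at about 0.56 in these data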;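 note: stock transfer was 300 nL into about 60 µL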
Ecoli rRNA inh OD600: recorded beside Ecoli rRNA inh, whose call it bears; OD600 change, %; measured here: OD600 growth;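 optical density of the mix in the first replicate; 0 = DMSO median and -100 = no signal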
Ecoli rRNA inh RFP: recorded beside Ecoli rRNA inh, whose call it bears; RFP signal change, %; measured here: RFP humanized mutant strains;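 first replicate; 0 = DMSO median and -100 = no signal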
* hit, by the source's call; i = inactive; ? = inconclusive; . = no result given. This is a subset, so the mix of outcomes need not match the whole.

compound	Ecoli rRNA inh	Ecoli rRNA inh OD600	HNF4A DNA FP	Beta2AR agonist	Ecoli rRNA inh RFP	E coli growth	ALR inh	UCH37 inh	FGF22 binding
NS(=O)(=O)c1ccc(NC(=O)CN2CCN(S(=O)(=O)c3cccs3)CC2)cc1	9	10	-4.2	-1	-0.6	0.7	.	0.5	i
COc1ccccc1N1CCN(C(=O)c2ccccc2N(C)S(=O)(=O)c2ccc(C)cc2)CC1	-2	-18	3.3	4	3.7	0.7	29	2.8	i
Cc1cc(C)nc(Nc2cccc(C(F)(F)F)c2)n1	0	1	0.9	6	-3.0	0.67	0	1.3	i
Cc1nn(CC(=O)N2CCN(C)CC2)c(=O)c2c1sc1ccccc12	6	10	-1.3	-2	-0.3	0.69	-7	-0.8	i
CNC(=S)Nc1cc(Cl)ccc1Oc1ccccc1	-9	-6	-0.8	-9	-6.2	0.65	-14	3.2	i
COc1ccc(C(=O)NCc2nnc(SCC(=O)N3CCCC3)o2)cc1	5	14	-26	-6	-1.6	0.61	-5	0.6	i
Cc1nn(-c2cc(N3CCCCC3)ccc2N)c(=O)c2ccccc12	.	.	4.7	-10	.	0.68	99*	1.8	.
COc1ccc(C(=O)/C=C\c2ccc(NC(=O)c3cccs3)cc2)cc1	.	.	-2.2	-6	.	0.74	9	-0.7	.
COc1ccc(NC(=O)CCC(=O)N2CCN(S(=O)(=O)c3ccc(C)cc3)CC2)c(OC)c1	3	4	-1.5	-2	1.1	0.7	-6	0.7	i
COc1cccc(NC(=S)N(CCc2c(C)[nH]c3ccccc23)Cc2cccs2)c1	1	8	1.4	2	7.1	0.79	4	4.6	i
Cc1cc(C)c(C(=O)CSc2nnc(N)s2)c(C)c1	-6	-13	2.7	-26	3.4	0.66	7	4.2	i
CC(=O)c1cccc(NC(=O)CCN2C(=O)C3CC=CCC3C2=O)c1 (configuration not stated)	16	11	0.0	0	5.4	0.65	.	1.4	i
O=C(/C=C/c1ccco1)NCC(=O)N/N=C/c1ccc([N+](=O)[O-])cc1	.	.	-17	-2	.	.	1	.	i
COc1ccc([C@H]2C[C@@H](O)[C@H](n3cc(COC(=O)c4ccccc4)nn3)CN2C(=O)C2CCCCC2)cc1	7	-13	3.6	.	-8.1	.	.	.	i
COC(=O)CCc1c(COC(C)=O)[nH]c(C(=O)OCc2ccccc2)c1C	3	-6	-3.0	8	-2.4	0.61	2	1.9	i
O=C(NC1CC2CCC1C2)C1COc2ccccc2O1 (configuration not stated)	.	.	0.3	2	.	0.76	0	3.9	.
COc1ccc(-c2c(-c3cc(OC)cc(OC)c3)n(C)c3ccc(-c4cnc(OC)nc4)cc23)cc1	7	15	-2.2	8	16	0.76	-8	-18	i
Cc1cccc(N(CC(=O)NCc2ccc(F)cc2)C(=O)c2csnn2)c1C	-5	-8	-0.2	1	-0.7	0.65	0	3.3	i
CC(C)C(OC(=O)c1oc2ccccc2c1CSC1CCCCC1)C(=O)NC(N)=O (configuration not stated)	.	.	.	.	.	0.71	-3	1.2	.
CCOC(=O)Cn1cnc2c(nnn2-c2cccc(OC)c2)c1=O	4	2	-1.6	-3	-0.2	0.64	-2	-1.5	i
Cc1nc2ccc(N3C(=O)CCC3=O)cc2[nH]1	.	.	1.4	7	.	0.7	-9	-1.5	.
O=[N+]([O-])c1cc(Cl)cc(/C=N/n2cnnc2)c1O	1	5	-2.8	12	3.8	.	-62	.	i
CCOC(=O)C1(Cc2ccccc2C)CCCN(C(=O)CCC(=O)OC)C1 (configuration not stated)	9	10	9.7	2	-0.1	0.68	-7	-0.7	i
O=C(CN1CCN(C(=O)c2ccco2)CC1)Nc1ccccc1-c1ccccc1	.	.	-0.4	-6	.	0.72	3	0.5	.
CCN1CCN(C(=O)c2cc3c(=O)n4ccccc4nc3s2)CC1	3	9	1.0	-8	-3.0	0.67	.	i	i
O=C(CN1C(=O)/C(=C\c2ccc(C(F)(F)F)cc2)Sc2ccccc21)NCc1ccco1	.	.	2.3	18	.	.	-4	-29	.
Cc1csc(SCC(=O)Nc2cccc3nsnc23)n1	.	.	-1.4	1	.	0.73	?	-23	.
CCCCNC(=O)[C@@H]1CC=C[C@@H]2CCN(Cc3ccc(Cl)c(Cl)c3)C(=O)[C@@H]21	-39	-62	3.2	-12	-13	.	.	3.7	i
O=C(O)c1cccc(S(=O)(=O)NCCC(c2ccccc2)c2ccccc2)c1	-27*	-16*	-3.0	6	3.3*	0.7	2	1.2	i
Cc1cc(=O)n(C2CCS(=O)(=O)C2)[nH]1 (configuration not stated)	29	23	-0.6	3	2.4	0.68	-6	-0.1	i

Next section; the last three above are carried over.
compound	Ecoli rRNA inh	Ecoli rRNA inh OD600	HNF4A DNA FP	Beta2AR agonist	Ecoli rRNA inh RFP	E coli growth	ALR inh	UCH37 inh	FGF22 binding
CCCCNC(=O)[C@@H]1CC=C[C@@H]2CCN(Cc3ccc(Cl)c(Cl)c3)C(=O)[C@@H]21	-39	-62	3.2	-12	-13	.	.	3.7	i
O=C(O)c1cccc(S(=O)(=O)NCCC(c2ccccc2)c2ccccc2)c1	-27*	-16*	-3.0	6	3.3*	0.7	2	1.2	i
Cc1cc(=O)n(C2CCS(=O)(=O)C2)[nH]1 (configuration not stated)	29	23	-0.6	3	2.4	0.68	-6	-0.1	i
O=C(CN(Cc1ccco1)S(=O)(=O)c1ccccc1)N/N=C/c1cccc(O)c1	.	.	-1.6	8	.	.	26	.	.
Cc1ccnc(Nc2nc(-c3ccc(Cl)cc3)cs2)c1	10	9	-0.7	-2	0.4	.	-2	.	i
CCc1ccccc1NC(=S)N(CCCN1CCOCC1)Cc1ccccn1	.	.	5.2	-2	.	0.69	-27	-15	.
CC(=O)Nc1ccc(N2CC(C)(C)C2=O)cc1	17	14	-0.1	-3	-1.3	0.68	1	4.3	i
CCc1ccc(NC(=O)c2ccc(OC)c([N+](=O)[O-])c2)cc1	.	.	0.8	-3	.	0.64	-5	1.0	.
O=C(CN(Cc1ccco1)C(=O)CNS(=O)(=O)c1ccc(Cl)cc1)NCC1CCCO1 (configuration not stated)	4	1	2.2	3	-5.3	0.73	-8	5.3	i
OC(c1ccc(F)c(F)c1)c1nc(-c2cc(F)cc(F)c2)cs1 (configuration not stated)	-59	-76	1.6	.	-19	.	.	.	i
COC(=O)c1ccc(SC)cn1	1	6	3.7	6	-0.5	0.74	-8	2.4	i
Cc1cccc([N+](=O)[O-])c1NC(=O)COC(=O)C1CCCO1 (configuration not stated)	4	5	0.7	-1	-0.5	0.67	1	3.1	i
O=C(CN1CCC(C(=O)c2ccc(Cl)cc2)CC1)Nc1ccc2c(c1)OCCO2	.	.	-1.9	4	.	0.65	-19	1.7	.
CCC(=O)N1N=C(c2ccc(NS(=O)(=O)c3ccccc3)cc2)CC1c1ccco1 (configuration not stated)	.	.	-0.2	8	.	0.71	-1	1.5	i
COc1ccc(S(=O)(=O)CCC(=O)Nc2c(C)n(C)n(-c3ccccc3)c2=O)cc1	.	.	-1.8	-3	.	0.66	1	0.9	.
O=C(NCc1ccc(F)cc1)c1ccc(S(=O)(=O)N2CCCC2)cc1	-8	-17	1.4	.	3.9	.	.	.	i
O=C(CN1C(=O)c2ccccc2S1(=O)=O)c1ccc2c(c1)OCCO2	13	12	2.9	4	0.5	0.64	-14	3.4	i
COc1ccc(NC(=O)c2cccc(N3C(=O)C4C5C=CC(C6CC56)C4C3=O)c2)c(OC)c1 (configuration not stated)	-16	-22	3.1	6	-1.0	0.68	-11	3.0	i
Cc1ccc(-n2nc3c(c2NC(=O)c2c(-c4ccccc4Cl)noc2C)CS(=O)(=O)C3)c(C)c1	-21	-21	2.4	-1	4.4	0.7	-6	2.0	i
CC(=NNC(=S)Nc1cccc(Cl)c1)c1ccccn1	-13	2	2.2	4	3.6	.	.	.	i
CCOC(=O)c1[nH]c(=S)n(Cc2ccccc2)c1C(=O)OCC	-1	-4	0.6	43*	-1.8	0.64	.	3.3	i
Cc1ccccc1CN1C(=O)c2ccccc2Sc2ccc(C(=O)O)cc21	-34*	-19*	-0.7	14	-8.4*	0.69	-11	3.0	.
Clc1cccc(CN2CCSCC2)c1	12	14	-0.9	17	9.5	0.69	-4	0.8	i
COc1ccc(NC(=O)COC(=O)CNC(=O)c2cc(OC)c(OC)c(OC)c2)cc1	.	.	-0.9	3	.	0.68	-5	2.7	.
COc1ccc(OCc2cc(C(=O)N(C)C3CCOCC3)no2)c2ccccc12	-9	-37	-2.5	14	-3.1	0.7	-17	6.8	i
CCC(CC)C(=O)N(C)c1c(C)nc2c(OCc3ccc(C(F)(F)F)cc3)cccn12	-2	-19	3.3	.	4.1	.	.	.	i
O=C(Nc1ccc(Cl)c(Cl)c1)c1ccccc1	-14	-12	1.6	10	11	0.6	4	1.0	i
O=C(COC(=O)c1cc(S(=O)(=O)N2CCOCC2)ccc1F)Nc1ccc2c(c1)OCO2	-3	1	5.3	12	-0.4	0.66	-13	0.9	i
COc1ccc(OC)c(C(=O)CCCC(=O)c2cc(OC)ccc2OC)c1	-17	-26	10	11	-2.0	0.66	-7	-1.6	i
COc1ccc(OC)c(C2NC(=O)NC(C)=C2C(=O)Nc2ccc(C)cc2C)c1 (configuration not stated)	.	.	1.9	0	.	0.65	-18	0.3	.
Cc1ccc(NC(=O)Cn2c(=O)oc3ccccc32)cc1Cl	0	-1	1.3	12	1.3	0.68	-2	0.1	i
COc1cccc(-c2ccc(SCC(=O)N3CCOCC3)nn2)c1	2	-8	-3.1	-2	0.7	0.66	-4	2.2	i
O=C(CSc1ncc(C(F)(F)F)cc1Cl)NCC1CCCO1 (configuration not stated)	-1	15	1.4	-5	2.5	0.73	-11	0.5	i
CC(=O)Nc1ccc(S(=O)(=O)Oc2cccc(N3C(=O)C4CCCCC4C3=O)c2)cc1 (configuration not stated)	.	.	2.4	1	.	0.67	-9	1.3	.
COC(=O)/C(C#N)=C/c1ccc(-c2ccc(S(N)(=O)=O)cc2)o1	-27*	-11*	4.9	10	4.9*	0.71	-3	-2.5	i
CC(C)n1c(O)c(N=NC(=O)Cn2ccc(C(F)(F)F)n2)c2ccccc21	.	.	-2.0	-16	.	0.72	.	6.7	.
Cc1ccc(C(=O)NCCNC(=O)c2cnccn2)cc1	10	5	-6.4	9	-0.3	0.69	-11	1.3	i
O=C(c1cccc(Oc2ccc([N+](=O)[O-])cc2)c1)N1CCOCC1	0	8	0.6	5	0.1	0.69	-1	4.8	i
CC1(C)N=C(N)NC(Nc2ccccc2)=N1	.	.	-2.1	-5	.	0.73	.	2.1	.
O=C(OCn1nnc2ccccc2c1=O)C12CC3CC(CC(O)(C3)C1)C2	-6	1	-5.5	9	-0.1	0.67	0	0.8	i
